Screening data as filed in PubChem.
PABP polyA inh = blocks human PABP binding to poly(A) RNA | AID 2014 | P11940 | hit rate 1% among 290,000 | inhibition, % at 35 µM | fluorescence polarization;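 active means 50% or more with normal probe brightness, or confirmed in later tests; inconclusive means above 50% with abnormal brightness, or retests that disagree; inactive means below 50% or failed in later tests; about a fifth of its hits are not listed in these tables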;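 further: calls also rest on retests at 20 µM and on dose response follow-up; controls were probe without protein and protein plus probe with vehicle; some compounds called inactive have numbers as strong as hits; many hits fall short of the cut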
Rce1 inh = yeast Ras-converting enzyme inhibition; yeast membranes, quenched prenylated peptide cleavage fluorescence; Q03530; AID 2563; hit rate 0.27% among 290,000; calls only;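 active means fall in fluorescence gain of 50% or more versus controls, with final raw signal at or below 3038400; inconclusive means same 50% fall but final raw signal above 3038400; inactive means fall in fluorescence gain under 50%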;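 further: plate controls were neutral control wells for no effect and wells lacking membranes for full effect; tested at 10 µM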
Target sequence (Q03530 whole entry, looked up): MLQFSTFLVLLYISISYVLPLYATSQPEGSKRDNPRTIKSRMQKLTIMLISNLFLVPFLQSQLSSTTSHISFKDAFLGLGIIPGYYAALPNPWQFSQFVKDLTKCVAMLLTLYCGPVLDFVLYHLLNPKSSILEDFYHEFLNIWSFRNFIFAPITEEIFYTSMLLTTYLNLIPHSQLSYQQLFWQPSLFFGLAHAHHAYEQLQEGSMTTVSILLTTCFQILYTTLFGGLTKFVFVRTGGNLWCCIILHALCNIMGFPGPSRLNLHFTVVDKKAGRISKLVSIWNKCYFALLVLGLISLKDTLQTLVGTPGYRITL
MT1-MMP act inh = MT1-MMP (human) activation inhibition. P50281. HT1080 RFP-PRO-GFP cells, GFP/RFP ratio fluorescence, overnight; percent of plate control window, DMSO zero. GFP/RFP ratio change, % at 20 µM. hit rate 0.061% among 360,000. AID 651647;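 active means GFP/RFP ratio change of at least 30% with cell ATP level not reduced by more than half and red fluorescence within 50% of control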; further: strong numbers were not always called active
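Material – HT1080 RFP-PRO-GFP cells · Control set – DMSO wells and RFP-L50D-GFP cells · Incubation – overnight cell settling, then overnight compound exposure, 37 °C, 5% CO2 · Compound dosing – single-point 20 µM compound, 1% DMSO · Read-out – GFP/RFP fluorescence ratio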
UUG fidelity = yeast start codon fidelity modulation | activity score, % at 18.7 µM | AID 602363 | S. cerevisiae UUG-firefly luciferase reporter, luminescence/redox ratio | hit rate 0.13% among 350,000;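 active means replicate mean at a twofold rise or more, about +100% in these data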;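 further: firefly luciferase made from a UUG start codon reports start codon fidelity; reporter light over untreated wells divided by growth signal over untreated wells; some hits fall short of that in this replicate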
eIF4H inh = inhibitors of RNA binding by human eIF4H. inhibition, % at 35 µM. eIF4H fluorescence polarization binding assay. AID 2012. hit rate 0.94% among 290,000;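 active means 50% or more with normal probe brightness, or confirmed in later tests; inconclusive means above 50% with abnormal brightness, or retests that disagree; inactive means below 50% or failed in later tests; about a fifth of its hits are not listed in these tables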;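 further: calls also rest on retests at 20 µM and on dose response follow-up; 0% = protein and probe with vehicle and 100% = probe without protein; strong numbers were not always called active; many hits fall short of the cut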
CSC inhib = cancer stem cell inhibition; inhibition, % at 7.5 µM; hit rate 1.1% among 300,000; cancer stem cell-like cells viability, luminescence;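 active means mean at 75% or more and at least half the replicates too; inconclusive means mean and replicates disagree; tested in HMLE shEcad cells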;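 further: 0% = median of negative and 100% = median of positive control wells; the first replicate is given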
Env fusion inh = inhibitors of HIV Env-mediated cell fusion | hit rate 1.1% among 360,000 | HeLa-JRFL Env/CEM21 cell fusion, luciferase | inhibition, % at 12.3 µM;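 active means mean replicate inhibition score of at least 50 and every replicate individually at or above 50; inconclusive means only one of the two criteria met; inactive means mean below 50 and not all replicates reaching 50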;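 further: 0% = plate neutral controls and 100% = maraviroc near 300 nM; one replicate is shown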
MT1-MMP act inh RFP = further read-out of MT1-MMP act inh, marked with its call; RFP signal change, %; measured here: RFP expression control read;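 0 = vehicle wells; hits needed this value within 50% of zero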
An asterisk follows results filed as active; i = inactive; ? = inconclusive; . = not tested or not shown.

SMILES	PABP polyA inh	Rce1 inh	MT1-MMP act inh	MT1-MMP act inh RFP	UUG fidelity	eIF4H inh	CSC inhib	Env fusion inh
COc1cccc(CNC(=O)CCC2CCCN(C(=O)c3ccoc3C)C2)c1 (stereo unspecified)	-8.3	i	-0.9	0.5	-13.5	4.0	-5.5	7.2
Cc1ccc(NC(=O)COC(=O)Cn2ccc(C(F)(F)F)n2)cc1Cl	.	.	1.7	-0.7	10.2	.	.	1.8
O=C(/C=C/c1ccccc1)NC(NC(=S)Nc1cc(Cl)ccc1Cl)C(Cl)(Cl)Cl (stereo unspecified)	-8.3	i	-3.7	-1.7	.	-6.1	?	.
CC(C)(C)N(Cc1ccccc1)C(=O)COC(=O)c1cccc([N+](=O)[O-])c1	-4.2	i	7.3	1.7	-9.0	-0.6	-3.0	13.6
COc1cc(C2C=C(Nc3ccccc3)C(=O)N2c2ccccc2)ccc1O (stereo unspecified)	1.8	i	-3.8	4.6	4.0	-7.3	4.2	-19.6
COc1ccccc1NC(=O)CSc1nc2nc(C)cc(C)c2c(=O)[nH]1	9.9	i	2.0	2.2	.	-3.3	-8.1	.
COC(=O)c1cc(OC)c(OC)cc1NC(=O)c1cccc(C)c1	1.4	i	0.3	-5.0	.	-13.8	15.5	-3.6
Cc1cc(NS(=O)(=O)c2ccc(NC(=O)c3cc4cc(Br)ccc4oc3=O)cc2)no1	-3.9	i	-2.8	-1.2	.	-7.2	-4.7	0.9
CCCCN(C)CCCNC(=O)c1ccc(N2CCCC2=O)cc1	-6.4	i	-1.8	5.9	-17.7	2.7	-4.4	13.1
CC(C)CCOP(=O)(c1ccc(N(C)C)cc1)C(O)c1ccc(C(C)C)cc1 (stereo unspecified)	-9.3	i	-2.8	-8.6	-4.2	2.8	5.9	3.6
CC1(C)CC(=O)C2=C(C1)Nc1ccccc1NC2c1ccc([N+](=O)[O-])cc1 (stereo unspecified)	.	i	-2.2	-1.4	.	.	-6.9	25.0
CC(CNC(=O)CCc1nnc2ccc(N3CCC4(CC3)OCCO4)nn12)c1ccccc1 (stereo unspecified)	.	i	0.1	4.9	-12.1	.	5.7	3.0
CC1(C)CC(C)(O)N(Cc2ccccc2)C(=S)N1 (stereo unspecified)	-11.6	i	1.8	1.4	-11.8	-6.8	-10.4	-1.4
O=[N+]([O-])c1ccccc1N(CC1CO1)S(=O)(=O)c1ccccc1 (stereo unspecified)	3.8	i	-0.7	-1.2	.	-6.2	-5.9	-7.6
COc1ccc(CNC(=O)CCS(=O)(=O)c2ccc3c(c2)NC(=O)C(C)S3)cc1 (stereo unspecified)	-1.2	i	-1.6	-1.4	-18.7	16.4	4.4	5.8
COc1ccccc1C(=O)Nc1cc(Cl)ccc1O	-5.9	i	-7.8	-2.5	-20.7	-3.5	-11.4	.
CCOc1ccccc1-n1nnnc1SCC(=O)N(C)C1CCS(=O)(=O)C1 (stereo unspecified)	.	.	0.6	4.0	-8.2	.	.	-15.6
CCC(O)C1CCN(Cc2cn(Cc3ccccc3)nc2-c2cc3ccccc3o2)CC1 (stereo unspecified)	1.9	i	2.2	-3.7	.	-4.6	9.1	5.3
CCCc1[nH]n(-c2ccc([N+](=O)[O-])cc2)c(=O)c1C=NCCc1c[nH]c2ccccc12	-2.4	i	0.7	-9.9	.	0.7	24.1	.
Cc1cc(OCC(O)CN2CCN(CCO)CC2)ccc1C(C)C (stereo unspecified)	1.4	i	1.0	9.1	-4.0	4.0	.	.
CC1CCCC(C)N1C(=O)Cc1ccccc1 (stereo unspecified)	-3.3	i	7.7	3.6	-30.7	0.2	-7.9	.
CCS(=O)(=O)N1CCN(S(=O)(=O)c2ccc(S(=O)(=O)NC3CC3)cc2)CC1	2.8	i	.	.	-14.3	-0.4	-15.0	15.8
COCCNC(=O)C1CC(=O)N(C2CCCC2)C1 (stereo unspecified)	0.4	i	-2.1	-0.3	-6.3	-10.2	-1.1	.
Cc1cc(C)cc(CSc2nnc(C)c(=O)[nH]2)c1	-0.1	i	-5.6	0.3	-10.6	-13.1	10.4	10.5
O=C(/C=C/Nc1ccccc1C(=O)O)c1cccs1	26.5	i	-8.8	-2.3	.	-4.5	.	-48.7
Next results follow:
SMILES	PABP polyA inh	Rce1 inh	MT1-MMP act inh	MT1-MMP act inh RFP	UUG fidelity	eIF4H inh	CSC inhib	Env fusion inh
N/C(=N\OC(=O)c1ccc(Br)cc1)c1cccc([N+](=O)[O-])c1	13.6	i	-0.8	2.8	1.2	5.3	-13.9	-18.2
COc1ccc(N/C(C)=C2/C(=O)C(=O)N(CCO)C2c2ccc(Br)cc2)cc1 (stereo unspecified)	1.9	i	0.5	1.2	-2.3	-3.5	1.2	6.2
Cc1ccccc1-c1nc(S(=O)(=O)c2ccc(Br)cc2)c(NCc2cccnc2)o1	0.0	i	-13.2	-11.7	-14.5	3.2	11.9	.
COc1ccc(CCn2c(C)cc(C(=O)CSc3nnnn3-c3ccccc3)c2C)cc1OC	7.4	i	0.2	-1.5	-4.0	22.2	-5.8	.
COC(=O)CSc1nnc([C@H](CC(C)C)NC(=O)OC(C)(C)C)o1	-4.6	i	-1.4	3.5	-1.2	-6.8	.	-17.1
CCOC(=O)c1c(CN2CCOCC2)n(-c2ccccc2)c2cc(Br)c(O)cc12	6.3	i	-10.8	-11.9	3.9	12.1	17.2	-22.2
O=C(COc1ccccc1[N+](=O)[O-])Nc1ccc2oc(=O)ccc2c1	-11.3	i	-1.2	-1.5	9.4	19.6	10.0	-8.4
CCN(CC)C(=O)Cn1cc(C(=O)C(=O)NCCc2c[nH]c3ccccc23)c2ccccc21	12.8	i	2.9	2.0	-12.1	-2.5	13.3	3.3
COC(=O)CN1C(=S)N(c2ccc(F)cc2)C(=O)C1CC(=O)Nc1ccc(OC)cc1 (stereo unspecified)	-2.8	i	5.7	1.5	0.2	1.5	1.0	11.6
CCN1C(=O)C(CC(=O)Nc2ccc(OC)cc2)N(CCCN2CCN(c3ccc(F)cc3)CC2)C1=S (stereo unspecified)	15.4	i	4.6	-2.4	-11.6	8.1	80.9*	1.1
CC1=C(C(=O)Nc2ccc(C(=O)NCCC(C)C)cc2)SCCO1	8.1	i	-2.6	-3.1	-13.9	7.7	-15.1	15.3
COc1ccccc1N1CCN(C(=O)CNC(=O)c2cn(-c3ccccc3OC)c(=O)c3ccccc23)CC1	6.5	i	1.9	-1.0	1.9	-2.1	12.6	-6.1
Cc1nc(N2CCN(C)CC2)c2c3c(sc2n1)CCCC3	-12.5	i	-5.7	-3.9	-15.0	7.9	-5.6	-1.5
Cc1cccnc1NC1(C(F)(F)F)N=C2SCCN2C1=O (stereo unspecified)	2.4	i	-0.5	3.1	-2.3	-5.6	-1.8	12.0
Cc1ccc(-n2c(=S)[nH]c3c(oc4ccccc43)c2=O)cc1C	-6.3	i	4.3	1.5	-28.6	1.0	-9.0	14.8
COc1ccccc1C(=O)NC(=O)CSc1nnc(C)s1	10.5	i	1.1	4.9	-7.5	-2.5	-6.4	-12.9
O=C1C=C(N2CCOCC2)c2cccc3cccc1c23	.	.	17.0	37.4	-3.2	.	.	27.0
CSc1ccccc1-c1cnc(NC(C)=O)cn1	.	.	-4.0	-0.4	0.9	.	.	-19.6
COc1ccc(-c2nnc(SCCOc3cccc(C)c3)n2N)cc1	-10.6	i	-3.1	-3.4	-11.4	-5.1	-6.2	-45.8
CN(Cc1ccccc1)C(=O)Cn1cccc1C(=O)c1ccccc1	-0.1	i	-2.1	-0.5	0.1	2.3	2.2	-27.4
CC1CC(C)CN(C(=O)COc2cccnc2[N+](=O)[O-])C1 (stereo unspecified)	.	.	-2.0	2.1	-17.2	.	-7.8	-6.4
COc1cccc(C(=O)NCCNC(=O)c2ccccn2)c1	0.1	i	1.3	5.7	-6.4	-0.5	-6.1	-8.0
CCOC(=O)c1c(-c2ccccc2)csc1NC(=S)NC(=O)c1ccccc1	-6.4	i	-3.6	5.1	-18.1	-16.6	61.8	-39.9
Cc1c(Br)c([N+](=O)[O-])nn1CC(=O)Nc1ccc(C(C)C)cc1	8.6	i	2.0	0.8	-4.2	-16.8	17.5	-6.2
C/C(=N\NC(=O)c1cccc([N+](=O)[O-])c1)c1cccs1	1.3	i	2.6	2.8	-12.5	-7.6	4.0	-6.0
More entries follow:
SMILES	PABP polyA inh	Rce1 inh	MT1-MMP act inh	MT1-MMP act inh RFP	UUG fidelity	eIF4H inh	CSC inhib	Env fusion inh
CCCCNC(=O)Nc1cc(C)on1	2.3	i	2.1	-2.3	-10.4	-2.0	-8.8	-21.1
COc1ccc(C(C#N)c2ccc(Cl)nn2)cc1 (stereo unspecified)	-10.4	i	4.2	4.6	.	-8.9	6.4	-2.0
CC1Sc2ccc(S(=O)(=O)CCC(=O)N3CCN(c4cccc(Cl)c4)CC3)cc2NC1=O (stereo unspecified)	12.0	i	-8.2	-26.1	6.5	-9.3	-5.5	10.7
Cc1noc(C)c1COC(=O)c1ccc(-c2nc3ccccc3s2)s1	-10.2	i	4.2	0.1	-20.4	-6.8	28.0	.
CC1CCCC(C)N1C(=O)COC(=O)/C=C/c1ccc(Br)o1 (stereo unspecified)	.	.	-0.1	3.3	-10.7	.	13.8	.
COc1ccc(Cl)cc1NC(=O)CN(C)C(=O)Cc1ccc2c(c1)CCC2	-1.5	i	0.1	-0.2	-19.1	1.5	-3.9	16.2
CCOC(=O)CNc1nc(Cl)nc(Nc2ccc(Cl)cc2)n1	-4.5	i	4.8	1.0	-20.6	-2.7	-6.2	-8.0
CC(C)n1cc(C(=O)N2CCCC(N3CCN(c4cccc(Cl)c4)CC3)C2)cn1 (stereo unspecified)	-0.3	i	-1.4	-1.0	-19.0	-2.5	-10.7	-15.2

Given with values under each structure: entries from further up.
Below each SMILES – PABP polyA inh	Rce1 inh	MT1-MMP act inh	MT1-MMP act inh RFP	UUG fidelity	eIF4H inh	CSC inhib	Env fusion inh
COc1ccc(Cl)cc1NC(=O)CN(C)C(=O)Cc1ccc2c(c1)CCC2
→ -1.5	i	0.1	-0.2	-19.1	1.5	-3.9	16.2
CCCCNC(=O)Nc1cc(C)on1
→ 2.3	i	2.1	-2.3	-10.4	-2.0	-8.8	-21.1
CCOC(=O)CNc1nc(Cl)nc(Nc2ccc(Cl)cc2)n1
→ -4.5	i	4.8	1.0	-20.6	-2.7	-6.2	-8.0
CC1CCCC(C)N1C(=O)COC(=O)/C=C/c1ccc(Br)o1 (stereo unspecified)
→ .	.	-0.1	3.3	-10.7	.	13.8	.
CC(C)n1cc(C(=O)N2CCCC(N3CCN(c4cccc(Cl)c4)CC3)C2)cn1 (stereo unspecified)
→ -0.3	i	-1.4	-1.0	-19.0	-2.5	-10.7	-15.2
COc1ccc(C(C#N)c2ccc(Cl)nn2)cc1 (stereo unspecified)
→ -10.4	i	4.2	4.6	.	-8.9	6.4	-2.0
CC1Sc2ccc(S(=O)(=O)CCC(=O)N3CCN(c4cccc(Cl)c4)CC3)cc2NC1=O (stereo unspecified)
→ 12.0	i	-8.2	-26.1	6.5	-9.3	-5.5	10.7

Only eIF4H inh and PABP polyA inh, for two of the compounds above:
smiles | eIF4H inh | PABP polyA inh
CCOC(=O)CNc1nc(Cl)nc(Nc2ccc(Cl)cc2)n1 | -2.7 | -4.5
CC(C)n1cc(C(=O)N2CCCC(N3CCN(c4cccc(Cl)c4)CC3)C2)cn1 (stereo unspecified) | -2.5 | -0.3

An excerpt; count on the stated rates, not on these rows.
